KSHV LANA nucl: inhibitors of KSHV LANA-nucleosome binding, primary screen, biochemical, fluorescence polarization, FITC-LANA1-23, chicken nucleosomes; FITC-LANA1-23 / chicken nucleosome fluorescence polarization; stronger effect = lower value; z-score (test concentration not listed); 51,000 tested, 0.3% active; AID 720717, 2013;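 active = both repeat wells score below -2 in polarization z-score versus plate sample wells, excluding overly bright wells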;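 note: 100 nL library stock added to about 30 µL; numbers are from one replicate; some results filed as inactive read as strong as hits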
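Assay system: purified chicken nucleosomes with FITC-labelled LANA N-terminal peptide (1-23) / Probe or stimulus: 50 nM FITC-LANA1-23 probe / Compound dosing: pin-transferred compound, 100 nL / Times: compound with peptide–nucleosome mix 10–45 min at room temperature / Technique: fluorescence polarization, 480 nm excitation, 535 nm parallel and perpendicular emission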
BasE inh: BasE siderophore enzyme inhibitors, primary screen, biochemical, Acinetobacter baumannii ATCC 17978, fluorescence polarization; purified BasE, fluorescence polarization binding displacement; inhibition, % (test concentration not listed); 84,000 tested, 0.1% active;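 active = both replicates above 25% with normal brightness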;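 note: 0% = negative plate control signal and 100% = positive plate control signal; stock transfer was 100 nL into about 30 µL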
Numbers without * were called inactive; x = not tested or not shown. These rows are one share of the data; the hit share may differ from the screen's.

item	Molecule	KSHV LANA nucl	BasE inh
1	COc1ccc(N=Cc2ccc(-c3ccccc3)o2)cc1	1.4	-2.6
2	Cc1cc(C(=O)OCC(=O)N2CC(C)CC(C)C2)c(C)o1 (stereo not given)	x	1.0
3	CCOC(=O)C1CCN(c2cnn(-c3nc4ccccc4s3)c(=O)c2Cl)CC1	-0.27	1.6
4	Cc1ccc(NC(=S)N(CC(N)=O)C(C)C)cc1C	x	0.2
5	Cc1ccc2c(c1)c1c3n2CCN(C(=O)CN2CCN(C(=O)c4ccco4)CC2)C3CCC1 (stereo not given)	0.14	0.6
6	Cn1c(O)c(C=Nc2ccccc2)c(=O)[nH]c1=S	2.1	0.3
7	CC(C)CC(=O)Nc1ccc(-c2cn3cccnc3n2)cc1	0.085	0.6
8	Cc1ccc2c(c1)nnn2C1CCN(C(=O)N(c2ccccc2)c2ccccc2)CC1	0.46	-1.6
9	COc1ccc(-c2cc(C(=O)NCc3cccs3)c(C(F)(F)F)o2)cc1	0.76	0.3
10	CN(Cc1ccccc1)C(=O)CCn1c(=O)c2cccn2c2cccnc21	0.57	-0.7

Continued.
item	Molecule	KSHV LANA nucl	BasE inh
11	C=CCn1c2ccccc2c2nnc(SC(CC)C(=O)Nc3nc4c(s3)CCCC4)nc21 (stereo not given)	x	-5.5
12	Cc1nc2ccc(NC(=O)C3CCCN3S(=O)(=O)c3cccs3)cc2s1 (stereo not given)	0.9	-4.2
13	COc1ccc(C)cc1S(=O)(=O)N(C)CC(N)=O	0.1	0.9
14	COc1cc2nc(CN3CCN(S(=O)(=O)c4ccc5ccccc5c4)CC3)[nH]c(=O)c2cc1OC	x	3.1
15	COc1ccc(NC(=O)C2CCCCN2)cc1OC (stereo not given)	-0.76	-1.4
16	O=C(COC(=O)C1CCCCC1)Nc1ncccn1	x	6.6
17	CCOC(=O)c1sc2c(c1C)C(c1cccs1)C1=C(CCCC1=O)N2 (stereo not given)	x	3.8
18	N#CCO/N=C(\c1ccccc1)c1ccncc1	-1.6	1.3
19	CCC1CN(C(=O)N2CCC(C(=O)NC)CC2)c2ccccc2O1 (stereo not given)	-0.025	-2.0
20	Cc1ccc(C)c(C(=O)CN2C(=O)c3ccccc3C2=O)c1	x	1.0

Continued.
item	Molecule	KSHV LANA nucl	BasE inh
21	C/C(CCc1oc2ccc(C)cc2c1-c1ccc(C)o1)=N\O	0.39	0.2
22	O=C(/C=C1\SC(=O)NC1=O)Nc1ccccc1C(=O)O	-0.82	0.5
23	c1ccc(Nc2ncnc3sc(-c4ccccc4)cc23)cc1	x	-2.6
24	CS(=O)(=O)N(CC(=O)N1CCc2ccccc2C1)c1ccc(F)cc1	0.36	-1.9
25	CCC(=O)Nc1ccc2nc(C)n(Cc3ccccc3)c(=O)c2c1	0.64	-2.0
26	Cc1nc2ccccc2c2oc(C(=O)NC3CCN(Cc4ccccc4)CC3)cc12	0.35	-1.8
27	CCNS(=O)(=O)c1ccc(NC(=O)Nc2cccc(OC)c2)cc1	-0.92	-2.6
28	COC(=O)c1ccc(/C=N/OCC(=O)N(C)C2CCCCC2)cc1	x	2.2
29	Nn1c(SCC(=O)NC2CCCC2)nnc1C1COc2ccccc2O1 (stereo not given)	x	2.1
30	COc1ccc(-c2oc3ncn(CCO)c(=N)c3c2-c2ccc(OC)cc2)cc1	x	-2.9

(cont.)
item	Molecule	KSHV LANA nucl	BasE inh
31	CC1CCN(S(=O)(=O)c2ccc3c(ccn3CCC(=O)NC(C)C)c2)CC1	x	-1.1
32	O=C(CN1NS(=O)(=O)c2ccccc2C1=O)Nc1ccccc1OC(F)F	x	2.5
33	C=CCN1C(=O)CC(Nc2ccc(F)cc2)C1=O (stereo not given)	-1.3	0.2
34	COc1cccc(NC2=C(C#N)C(=O)NC(c3cccc(OC)c3O)S2)c1 (stereo not given)	x	3.8
35	OC(c1cn2cc(-c3ccccc3)nc2s1)(C(F)(F)F)C(F)(F)F	x	0.1
36	C=Cn1c(C(=O)O)ccc1-c1ccc(OC)cc1	0.46	0.1
37	Cc1ccc2c(c1)NC(SCC(=O)NC(C)C)=NS2(=O)=O	0.43	0.7
38	COC(=O)CN(C#N)c1nc(SC)nc(N(C)C)n1	0.66	4.6
39	CCOC(=O)c1c(NC(=O)CSc2nnc(N)s2)sc2c1CCCC2	x	-0.4
40	NNC(=O)C1(O)c2ccccc2-c2ccccc21	x	3.2

(list continues)
item	Molecule	KSHV LANA nucl	BasE inh
41	Cc1ccc(-c2nn(CCC(=O)O)cc2CCC(=O)O)cc1	x	1.5
42	Cn1c2ccccc2c2nnc(SCC(=O)OCN3C(=O)c4ccccc4C3=O)nc21	-0.91	1.3
43	CN(C)c1ccc(NC(=O)Nc2ccc(OC(F)(F)F)cc2)cc1	-1.8	x
44	NCCCNCCSP(=O)(O)O	-0.031	x
45	Oc1cccc(C=Nc2ccc(OC(F)(F)F)cc2)c1O	-0.71	8.1
46	N#Cc1c(F)cccc1N1CCN(c2ccc(O)cc2)CC1	x	4.3
47	CCOc1ccc(OCC)c(S(=O)(=O)n2cnc3cc(C)c(C)cc32)c1	-1.1	-0.8
48	Cn1c(=S)n(CN2CCC(c3ccccc3)CC2)c2ccccc21	x	1.0
49	CC(OC(=O)C1CCN(S(=O)(=O)c2cccs2)CC1)C(N)=O (stereo not given)	x	-0.4
50	Cc1cccc(Cl)c1NC(=O)N1CCCN(c2ccc(C(F)(F)F)cn2)CC1	0.14	-0.6

Additional compounds follow:
item	Molecule	KSHV LANA nucl	BasE inh
51	O=C(c1ccc2c(c1)OCCO2)N1CCC(c2nc3ccccc3o2)CC1	x	-2.2
52	CC(=O)N[C@@H](Cc1ccccc1)C(=O)NN	x	2.5
53	CCOC(=O)c1cc2sccc2n1CC(=O)OCC(=O)NCc1ccco1	1.4	-1.0
54	OCC1CCCN(C(=S)NCCc2ccccc2)C1 (stereo not given)	-0.71	-1.6
55	O=S(=O)(Cc1ccccc1)NCc1ccco1	-0.88	4.5
56	Cc1ccccc1-c1nnc(N(C(=O)C2CC2)C2CCCC2)s1	-0.2	-1.7
57	CSc1nnc(CNC(=O)N(c2ccccc2)c2ccccc2)n1C(C)C	0.0055	-1.0
58	CN(C)S(=O)(=O)c1ccc(SCCCn2c(=O)[nH]c3ccccc32)nc1	x	-2.2
59	COc1ccc(NC(=O)C2CCN(c3nc(-c4ccc(OC)cc4)no3)CC2)cc1	0.23	1.3
60	CCN1CCc2c(sc(-n3cccc3)c2C(C)NC(=O)Nc2ccc(Br)c(C)c2)C1 (stereo not given)	0.49	-0.1

Further structures follow:
item	Molecule	KSHV LANA nucl	BasE inh
61	O=S(=O)(c1ccc(Cl)c(Cl)c1)N1CCCCC1	0.24	0.3
62	C/C(N)=N/C(=S)Nc1ccc(Cl)cc1	x	-2.3
63	CSc1ccc(S(=O)(=O)N2CCC(C(N)=O)CC2)cc1	0.1	5.1
64	NNC(=O)c1cc(NS(=O)(=O)c2cccs2)cc(NS(=O)(=O)c2cccs2)c1	x	0.4
65	COc1ccc(C(=O)N2CCN(c3ncnc4c3nnn4-c3ccc(F)cc3)CC2)cc1OC	0.13	-1.6
66	CCN(C#N)c1nc(OC)nc(N2CCOCC2)n1	-0.59	1.7
67	CS(=O)(=O)N1CCCC(C(=O)Nc2ccccc2)C1 (stereo not given)	-1.5	3.5
68	CC(C)c1nc2ccccc2c(=O)[nH]1	0.72	3.0
69	Cc1ccc(S(=O)(=O)N2CCC(C)CC2)cc1C(N)=O	-0.14	-0.5
70	Cc1c(-c2nc3ncc(Br)cc3[nH]2)cc(C#N)n1C	x	-3.4

71. CC(=O)N1CCN(C2c3cccc4cccc(c34)C2NS(=O)(=O)c2ccccc2)CC1 (stereo not given)
  KSHV LANA nucl: 1.2 | BasE inh: -1.0
72. O=c1c2c(-c3cccs3)csc2ncn1/N=C/c1ccccc1F
  KSHV LANA nucl: x | BasE inh: -0.7
73. O=C(Nc1ccc(-n2cnnn2)cc1)C1CCN(C(=O)/C=C/c2ccccc2)CC1
  KSHV LANA nucl: x | BasE inh: 0.3
74. COc1ccccc1NC(=O)c1c(C)[nH]c(=S)c(C#N)c1-c1ccc(C)o1
  KSHV LANA nucl: x | BasE inh: 3.1
75. COc1cccc(C(=O)Nc2cccc(-c3ccc(N4CCN(C)CC4)nn3)c2)c1
  KSHV LANA nucl: 0.88 | BasE inh: -4.3
76. O=S(=O)(CS(=O)(=O)Sc1ccc(Cl)cc1)Sc1ccc(Cl)cc1
  KSHV LANA nucl: x | BasE inh: -0.8
77. Cn1c(Cc2cccs2)nnc1SCCN1C(=O)c2ccccc2C1=O
  KSHV LANA nucl: x | BasE inh: 1.6
78. Cc1cccc2cc(CN(Cc3ccco3)Cc3nnnn3CCc3ccccc3)c(=O)[nH]c12
  KSHV LANA nucl: 0.72 | BasE inh: -3.7
79. O=c1[nH]c(CSCCO)nc2c1C1(CCCCC1)Cc1ccccc1-2
  KSHV LANA nucl: -1 | BasE inh: 2.8
80. CC(C)=NNC(=O)CN1C(=O)NC2NC(=O)NC21 (stereo not given)
  KSHV LANA nucl: -0.55 | BasE inh: 1.1

81. CC(=O)Nc1cccc(OCC(=O)N2CC(C)CC(C)C2)c1 (stereo not given)
  KSHV LANA nucl: x | BasE inh: 0.4
82. O=C(CO/N=C/c1ccccc1OC(F)F)N1CCN(S(=O)(=O)c2ccccc2)CC1
  KSHV LANA nucl: x | BasE inh: -0.1
83. COc1ccc(CC(=O)Nc2noc3ccccc23)cc1
  KSHV LANA nucl: 1.1 | BasE inh: -2.2
84. CC(C)(CSc1n[nH]c(N)n1)NS(=O)(=O)c1ccc(Cl)cc1
  KSHV LANA nucl: x | BasE inh: 2.1
85. COc1ccc(-c2cc(-c3ccc(C)cc3)nc(N3CCCCC3)n2)cc1
  KSHV LANA nucl: -0.54 | BasE inh: 1.0
86. O=C(NC1CC1)C1C2C=CC3(O2)C1C(=O)N(C1CC1)C3C(=O)NC1CCCCC1 (stereo not given)
  KSHV LANA nucl: -0.51 | BasE inh: 1.4
87. Cc1ccccc1NC(=O)Nc1ccc(CN2CCCCC2)cc1
  KSHV LANA nucl: -0.83 | BasE inh: -0.4
88. Cc1nn(-c2ccc(F)cc2)c2sc(C(=O)OCC(=O)N(C)C3CCS(=O)(=O)C3)cc12 (stereo not given)
  KSHV LANA nucl: x | BasE inh: 0.0
89. CCc1ccc(-c2nc(-c3ccc(C)cc3)no2)cc1
  KSHV LANA nucl: -1.1 | BasE inh: 0.3
90. O=C1Nc2ccccc2C1Cc1ccccn1 (stereo not given)
  KSHV LANA nucl: x | BasE inh: 2.8

91. CC1CN(CC(=O)Nc2ncc(Cc3ccccc3F)s2)CC(C)O1 (stereo not given)
  KSHV LANA nucl: 0.32 | BasE inh: 1.0
92. O=c1cccc2n1CC1CC(C2)N(c2nc(N3CCCCC3)nc(N3CCCCC3)n2)C1 (stereo not given)
  KSHV LANA nucl: 1.3 | BasE inh: -3.5
93. CCCCn1c(C(F)(F)F)nc2c(=O)oc3ccccc3c21
  KSHV LANA nucl: x | BasE inh: -2.8
94. O=C(CN1CCN(S(=O)(=O)c2ccc3c(c2)OCCO3)CC1)N(Cc1ccccc1)Cc1ccccc1
  KSHV LANA nucl: x | BasE inh: 0.7
95. N#C/C(=C\c1ccoc1)S(=O)(=O)c1ccccc1
  KSHV LANA nucl: 1.5 | BasE inh: -4.2
96. CCn1nnc2cc(C(=O)Nc3ccc(N4CCCC4)cc3)ccc21
  KSHV LANA nucl: x | BasE inh: 1.8
97. COc1ccc2c(CN3C(=O)NC4(CCc5ccccc54)C3=O)cc(=O)oc2c1 (stereo not given)
  KSHV LANA nucl: x | BasE inh: -3.4
98. CCC(=O)Nc1c2c(nn1C(C)(C)C)CSC2
  KSHV LANA nucl: -0.51 | BasE inh: 0.9
99. CC(=O)NC1(c2ccccc2)CCN(C(C)=O)CC1
  KSHV LANA nucl: 1.8 | BasE inh: -1.6
100. c1cncc(CNC2C3CC4CC(C3)CC2C4)c1 (stereo not given)
  KSHV LANA nucl: 0.79 | BasE inh: -3.0
101. CCCCN1C(=O)C2NN=C(C(=O)OC)C2C1=O (stereo not given)
  KSHV LANA nucl: 0.16 | BasE inh: 1.4
102. C=C(C)C1CCC(C)=C1CC/C(C)=N/NC(N)=O (stereo not given)
  KSHV LANA nucl: -0.046 | BasE inh: 4.2
103. c1ccc(-c2cnc(CSc3nnc(C4CC4)n3C3CC3)o2)cc1
  KSHV LANA nucl: x | BasE inh: -0.5

Source: PubChem BioAssay (ICCB-Longwood Screening Facility, Harvard Medical School)
